High-throughput results: PubChem, Fisher Drug Discovery Resource Center
NPYLR7 ag: agonists of mosquito NPYLR7 receptor, primary screen, cell-based, Aedes aegypti, calcium fluorescence, mosquito biting behavior; HEK293T NPYLR7/Galpha15, GCaMP6s calcium fluorescence; actives 0.15% (n = 270,000); activation, % at 10 µM; Aedes aegypti neuropeptide Y-like receptor 7 (NPYLR7); AID 1259423, 2018; in the data active = activation above about 40%;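 also: 0% = vehicle and 100% = reference agonist at the receptor; some compounds past the cut are filed as inactive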
NPYLR7 ag max-min: also measured in NPYLR7 ag; calls as there; activation, %; measured here: Max-Min RFU normalised activation; some inactives read as strong as hits;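 span of the calcium signal over five minutes; 0% = vehicle and 100% = native peptide agonist; compound fluorescence can raise it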
* = called active by the depositor. Only part of the results is shown; rates above refer to the full screens.

The line under a structure holds: NPYLR7 ag, NPYLR7 ag max-min
CCOC(=O)N1CCN(C(=O)c2cc(-c3ccc(OC)cc3OC)nn2-c2cccc(C)c2)CC1
 : -7, 4
COc1ccc(C(=O)N2CCc3nc(-c4ccccc4)nc(N4CCCC4)c3C2)cc1
 : 13, 8
COc1ccc(OC)c2sc(N(CCN(C)C)C(=O)c3cc(Cl)sc3Cl)nc12
 : -1, -6
Cc1ccsc1[C@@H]1CCN(Cc2cc(CC(C)C)n[nH]2)C[C@H]1O
 : -5, -5
CSC1=NC(=N)C(C#N)C2(CCCCC2)C1C(N)=O (centres undefined)
 : 5, -3
CC(=O)NC1C(Oc2ccc(Cl)cc2)OC(CO)C(O)C1O (centres undefined)
 : -3, -8
COc1ccc(C(=O)Nc2ccc3c(c2)C(N(C)C(C)C)=Nc2ccccc2O3)cc1
 : 7, 9
COc1ccc(C(=O)N[C@@H]2CCCCC2NC(=O)C2CCCN(C(=O)Cc3ccccc3)C2)cc1 (some centres undefined)
 : 2, 3
Cc1c(C(=O)N2CCN(CC(=O)NC3CC3)CC2)sc2ccccc12
 : 0, -3
Cc1ccc(N2CCCC(NCc3nc(-c4ccco4)no3)C2)nn1 (centres undefined)
 : -2, -3
COc1ccc(NS(=O)(=O)c2cnc[nH]2)cc1OC
 : 11, 6
COc1ccc(-c2cnc3ncnn3c2N2CCCN(C(=O)Nc3cccc(C(C)=O)c3)CC2)cc1
 : 1, -1
O=C(Cc1ccc2c(c1)CCCC2)Nc1ccc(S(=O)(=O)C(F)F)cc1
 : 6, 2
CC/C=C\CC/C=C/CN1CC[C@H](O)C[C@@H]1C(=O)O
 : -1, -3
Cc1nnc(Sc2cc(=O)n(C)c(=O)n2C)s1
 : 0, 0
Cc1ccc(N2C(=O)CCC2(C(N)=O)c2ccccc2)cc1 (centres undefined)
 : 10, 9
Nc1nc(SCc2cccnc2)[nH]c(=O)c1NC(=O)c1ccc(F)c(F)c1
 : 1, -1
Cc1ccc(-c2ccnc(NC3CC(=O)N(CC(C)(C)C)C3)n2)c(C)n1 (centres undefined)
 : 15, 10
Cc1ccc([N+](=O)[O-])cc1S(=O)(=O)Nc1cc2c3c(oc2c2ccccc12)CC(C)(C)CC3=O
 : -6, -11
CCCNc1nc2c(C)cccn2c(=O)c1C=C1SC(=S)N(C)C1=O
 : 6, 4
NC(=O)c1ccc(=O)n(CC/C=C/c2ccc(Br)cc2)n1
 : 1, 32
NC(=O)C(OC(=O)CCc1ccsc1)c1ccc(F)cc1 (centres undefined)
 : 2, 2
O=C(CSc1nc(=O)n(CCN2CCOCC2)c2c1CCCC2)N1CCCc2ccccc21
 : -5, -1
Cc1ccc(-c2cc(C(F)(F)F)n3nc(C(=O)NCCc4c[nH]c5ccccc45)cc3n2)cc1
 : -7, -12
O=c1cc(CSc2ncccc2Cl)nc2sccn12
 : -3, -4
CCOCCn1c(=O)c2c(nc3n(C4CCCC4)c(C)cn23)n(C)c1=O
 : -3, -3
CN(CC1OCCO1)C(=O)Cc1ccc(OC(CCN2CCOCC2)c2cccs2)cc1 (centres undefined)
 : 0, 19
Cn1c(=O)n(CCN2CCCCC2)c(=O)c2c1nc1n2CCCN1c1ccccc1
 : 7, 2
Cc1ccc(-n2nc3c(c2NC(=O)c2ccc(S(=O)(=O)N(C)C)cc2)CS(=O)C3)cc1 (centres undefined)
 : 2, 0
Cc1nn(-c2ccc(F)cc2)c2nc(CCC(C)C)nc(N3CCN(C(=O)c4ccccc4Br)CC3)c12
 : -4, 1

Entries of single compounds from above:
Record of NC(=O)C(OC(=O)CCc1ccsc1)c1ccc(F)cc1 (centres undefined) : NPYLR7 ag: 2; NPYLR7 ag max-min: 2
Record of O=C(Cc1ccc2c(c1)CCCC2)Nc1ccc(S(=O)(=O)C(F)F)cc1 : NPYLR7 ag: 6; NPYLR7 ag max-min: 2

4 of the compounds above, field by field:
Cc1ccc(-c2cc(C(F)(F)F)n3nc(C(=O)NCCc4c[nH]c5ccccc45)cc3n2)cc1
  NPYLR7 ag: -7; NPYLR7 ag max-min: -12
CC(=O)NC1C(Oc2ccc(Cl)cc2)OC(CO)C(O)C1O (centres undefined)
  NPYLR7 ag: -3; NPYLR7 ag max-min: -8
Cc1c(C(=O)N2CCN(CC(=O)NC3CC3)CC2)sc2ccccc12
  NPYLR7 ag: 0; NPYLR7 ag max-min: -3
COc1ccc(OC)c2sc(N(CCN(C)C)C(=O)c3cc(Cl)sc3Cl)nc12
  NPYLR7 ag: -1; NPYLR7 ag max-min: -6

Continued.
The line under a structure holds: NPYLR7 ag, NPYLR7 ag max-min
CCc1nc2ccc(C(=O)N3CCN(C)CC3)cn2c1N(C)Cc1nccs1
 : -8, -11
Cc1nn(C2CCS(=O)(=O)C2)c2nc(-c3cccs3)cc(C(=O)N3CCCCCC3)c12 (centres undefined)
 : 2, 7
O=C(O)CCc1nnc(SCc2ccc(Cl)cc2)[nH]c1=O
 : 6, 4
CN(c1cc(C(C)(C)C)nc(SCc2ccc(C(=O)NCc3ccc4c(c3)OCO4)o2)n1)C1CCCCC1
 : 9, 6
CC(/C=C1\N=C(c2cc([N+](=O)[O-])ccc2Cl)OC1=O)=C\c1ccccc1
 : -4, -5
C=CCC1(CC=C)CCCCN1C(=O)CC1C=CS(=O)(=O)C1 (centres undefined)
 : 1, -3
CC1CN(CCNC(=O)C2CCCc3c2[nH]c2ccccc32)Cc2ccccc2O1 (centres undefined)
 : 5, 3
NC(=O)c1cccc(CN2C(C(N)=O)CC3CCCCC32)c1 (centres undefined)
 : 0, 0
c1ccc(-c2nc[nH]c2-c2ccccc2Cn2cccn2)cc1
 : -1, -7
CC(=O)Oc1ccc(C2C(C#N)=C(C)NC3=C2C(=O)CCC3)cc1 (centres undefined)
 : -3, -6
CCN1CCC(N(C)C(=O)Nc2cccc(-n3nc(C)cc3C)c2)C(C)C1 (centres undefined)
 : 1, 1
CCCCN(CC(=O)Nc1cc(-c2ccccc2)nn1-c1ccc(Cl)cc1)C(=O)Nc1ccc(OCC)cc1
 : 20, 25
COCCn1c(SCC(=O)Nc2cccc(F)c2)nc2c([nH]c3ccccc32)c1=O
 : 9, 6
COC(=O)C1CCN(C(=O)CCc2csc(NC(=O)NC3CCCCC3)n2)CC1
 : 5, 2
CCOC(=O)CC1CCCCN1C(=O)c1ccc2nc(-c3cccc(OC)c3)oc2c1 (centres undefined)
 : 0, 0
CCCCCCCCCCCCCCCC(=O)OCC(O)[C@H]1OC(=O)C(O)=C1O (some centres undefined)
 : 5, 11
O=S(=O)(NC1CCSc2ccccc21)c1ccc(S(=O)(=O)N2CCOCC2)cc1 (centres undefined)
 : 0, -4
COCC1CCCN(C(=O)c2ccc(-c3cc(OC)cc(OC)c3)nc2)C1 (centres undefined)
 : 1, -2
Cc1ccc(NC(=NS(=O)(=O)c2cccs2)c2ccccc2)c(C)c1
 : -8, -11
CS(=O)(=O)c1ccc2c(c1)NCCO2
 : -5, -5
Cc1nc2c(c(N3CCC(C(C)N4CCOCC4)CC3)n1)CCNCC2 (centres undefined)
 : 12, 6
CC1(C(=O)NS(=O)(=O)c2ccccc2Cl)CCN1C(=O)CCc1ccccc1 (centres undefined)
 : 1, 2
CCN(CC)CCNc1c2c(c(C#N)c3nc4ccccc4n13)CCC2
 : 8, 1
CCCNC(=O)c1c(O)c2ccccc2[nH]c1=O
 : -3, -10
O=c1nc(SC2CCCC2)nc2ccccn12
 : 1, 1
COc1cccc(-c2noc(NCC3CSCCS3)n2)c1 (centres undefined)
 : -1, -2
Cc1ccc(Cn2nnc3c(=O)n(Cc4ccccc4C)cnc32)cc1
 : 6, 9
CC(C1CC1)N(C)C(=O)NCCc1cc(F)ccc1F (centres undefined)
 : 5, 2
Cc1nc(SCC(=O)NCc2ccccc2)c2oc3ccccc3c2n1
 : -7, -6
CCOc1ccc(-c2cc3c(=O)n(Cc4nc(-c5ccc(OC)c(OC)c5)no4)ccn3n2)cc1
 : 1, 1

Later entries
The line under a structure holds: NPYLR7 ag, NPYLR7 ag max-min
CCOC(=O)C1CCN(CC(=O)N2N=C(c3cccc(F)c3)CC2c2ccc(OC)cc2OC)CC1 (centres undefined)
 : -1, 11
O=C(NCC1CCCO1)c1nn(-c2ccccc2F)c(=O)n(Cc2cccc(C(F)(F)F)c2)c1=O (centres undefined)
 : 10, 7
CCOC(=O)CCNC(=O)NCc1nnnn1-c1ccc(C)c(C)c1
 : 2, 1
CC(C)c1cc(-c2nn3c(Cc4ccccc4)nnc3s2)no1
 : 17, 13
CC1(C)C[C@@H]2C[C@@](C)(CN2C(=O)C(C)(C)NC(=O)c2cccs2)C1
 : 15, 7
Cc1cc(Br)ccc1NCc1ccc(C#N)cc1
 : 1, -1
COc1ccc(OCc2cc(C(=O)N(C)Cc3nnc(C)o3)no2)c(Cl)c1
 : 12, 4
COc1cc(/C=C/C(=O)N2CCC(NC(=O)c3ccccc3)CC2)cc(Cl)c1OC
 : -10, -10
O=C(/C=C/c1cccs1)N(Cc1ccccn1)c1nc2ccccc2s1
 : -6, -11
COc1cc(CN2CCC(C(=O)NC(c3ccc(Cl)cc3)c3ncccc3C)CC2)cc(OC)c1 (centres undefined)
 : 9, 0
Cn1cc(Br)cc1C(=O)Nc1cccc(C(N)=O)c1
 : -15, -22
COc1ccc(C)cc1-c1nn(CC(C)C)cc1C(=O)Nc1cc(C)nn1C
 : 4, 2
C=CCNC(=O)C(NC(=O)c1ccc2c(c1)OCO2)C1CCN(C(=O)COC)CC1 (centres undefined)
 : 4, 8
CCCNC(=O)C1(C)CCN(Cc2csc3ccccc23)C1 (centres undefined)
 : 1, -1
CCCC(=O)Nc1nnc(Cc2ccccc2)s1
 : 5, 4
Cc1[nH]c2ccccc2c1CCNC(=O)C1C2C=CC3(CN(C)C(=O)C13)O2 (centres undefined)
 : 0, 5
O=C(NCc1ccco1)c1cnn2c1NC(c1ccccc1)CC2C(F)(F)F (centres undefined)
 : -6, -9
C#CCNS(=O)(=O)c1ccc(C(=O)N2CCOc3ccccc32)cc1
 : 1, 0
O=C(c1cn(C2CCCCC2)nn1)N(Cc1cccnc1)C1CCNCC1
 : 2, -2
CS(=O)(=O)Nc1ccc(/C=C/C(=O)NCCc2cccc(F)c2)cc1
 : 8, 7
CCOC(=O)CCCSc1nnc(NC(=O)Cc2cccs2)s1
 : 15, 26
Cc1nn(C)c(Cl)c1C(=O)NC(C)c1ccc2c(c1)OCCCO2 (centres undefined)
 : 3, 2
CSc1nc(C(=O)NCC2(O)CCCC2)c2ccccn12
 : -3, 52
CCn1ccnc1CN1CCN(Cc2ccc(C)o2)C(CCO)C1 (centres undefined)
 : 2, -2
Cc1c(C(=O)NCCC2CN(C)CCO2)cnn1-c1ccccn1 (centres undefined)
 : 1, 0
CC1CN(C(=O)c2ccccc2NC(=O)c2ccc(=O)n(C)n2)CC(C)O1 (centres undefined)
 : -1, -6
COCCCNC(=O)c1nn(-c2ccc(C)c(F)c2)c(=O)n(Cc2cccc(Cl)c2)c1=O
 : 0, 10
CC(C)c1cc(C(=O)NCCc2csc(-c3ncccn3)n2)n(C)n1
 : 8, -1
Cc1cc(Br)cc(Cl)c1OCC(=O)Nc1cccc(N2CCCC2=O)c1
 : 1, 3
O=C(NCc1ccccn1)C1COC2(CCN(C(=O)c3cccc(Cl)c3)CC2)N1C(=O)c1ccc(F)cc1 (centres undefined)
 : 25, 17

Later entries:
The line under a structure holds: NPYLR7 ag, NPYLR7 ag max-min
Cc1ccc(S(=O)(=O)N(C(C)C)C2CC2)c(C)c1
 : -1, -1
O=C1c2ccccc2C(=O)N1CNc1ccc(OCc2ccccc2)cc1
 : -4, -4
CC(CC1=[N+](c2ccccc2)C(O)(c2ccccc2)CS1)=Nc1ccc(C)cc1 (centres undefined)
 : 1, 1
O=c1c2oc3ccc(Cl)cc3c2nc2n1CCS2
 : -3, -4
CN(C(=O)Nc1nc2ccc(F)cc2s1)C1CCCc2ccccc21 (centres undefined)
 : 6, 1
CCOC(=O)N1CCN(C(c2cccc(Cl)c2)C2Sc3nc(CC)nn3C2=O)CC1 (centres undefined)
 : 0, -7
CC(=O)NC1(C(=O)NCCOc2ccc(C(C)(C)C)cc2)CCCCC1
 : 0, 2
Cc1cc(CN(C)C(=O)c2cc(CN3CCC(Cc4ccccc4)CC3)on2)on1
 : -7, -17
Cn1ncc2c(NC3CCCCC3)nc(N3CCN(Cc4ccccc4)CC3)nc21
 : 7, 3
O=C(CCc1ccccc1)N1CCc2ccccc2C1c1ccc(F)cc1 (centres undefined)
 : 0, 10
Cc1ccsc1CN(CCN(C)C)C(=O)c1ccc2c(c1)nnn2C
 : 21, 15
CN1CCN(C(c2ccc(F)cc2)C2Sc3ncnn3C2=O)CC1 (centres undefined)
 : 4, 4
Cc1ccnc(C(NC(=O)c2cccc(-n3cccn3)c2)C2CC2)c1 (centres undefined)
 : -7, -10
CCN(CC)C(=O)Oc1ccc2c(ccn2Cc2c(Cl)ccc(C)c2F)c1-c1cc(F)cc(F)c1
 : 11, 5
C=CC[C@@H]1CC=C[C@@H](C)N1C(=O)CN1CCNCC1
 : -4, -6
Cc1nnc(Sc2ncccc2C(=O)O)s1
 : -1, 4
Cc1cc(C)n(Cc2cc(N)ccc2Cl)n1
 : 1, -1
COc1ccc2cc(C3CN(Cc4noc(C5CC5)n4)CCO3)ccc2c1 (centres undefined)
 : 2, -4
